Screening data from PubChem.
YjeE inh – qHTS Assay for Inhibitors of YjeE; Potency, µM; purified YjeE, fluorescence polarisation of a bound ADP probe; 71,000 tested, 0.05% active; AID 605, 2007; tRNA threonylcarbamoyladenosine biosynthesis protein TsaE (Escherichia coli (strain …; active = well fitted falling curve; inconclusive = weaker or top-dose-only fall, or a rising curve; inactive = flat or poorly fitted curve;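 also: top concentration of the series not given in the record; excess ADP was the control for the full effect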
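Purified YjeE (10 uM) with BODIPY Texas Red-labeled ADP probe (2 uM); compounds pin-transferred, 15 min at room temperature. Binding inhibition read as decreased fluorescence polarization; ADP titration as control.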
PK Bst – Pyruvate Kinase; 51,000 tested, 1.2% active; partly purified Bacillus stearothermophilus pyruvate kinase, luminescence ATP production; ribose 5-phosphate activator present at AC10; Potency, µM; in the data active means potency below about 11 µM; inconclusive means mostly about 12 µM to 25 µM; inactive means weaker than that;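 the screen sought inhibitors and activators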;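 also: potency is read from the fitted curve at half-maximal effect; scaled between full activation by ribose 5 phosphate and full inhibition by luteolin; about four in five hits inhibit and the cells do not say which; series up to 57 µM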
Numbers without * were called inactive; i = inactive; · = not tested or not shown. These rows are one share of the data; count on the stated rates, not on these rows.

SMILES | YjeE inh | PK Bst
CCOC(=O)c1ccc(COC(=O)CNC(=O)CNC(=O)c2ccc(OC)cc2)o1 | i | >57
O=C(Nc1cccc2ccccc12)N1CCN(c2ccc(F)cc2)CC1 | i | ·
CN(C)CCNC(CC(=O)Nc1ccc(Cl)c(Cl)c1)C(=O)O (stereo not drawn) | i | >57
Cn1c(CCNC(=O)C(C)(C)C)nc2ccccc21 | i | >57
COc1ccc(OC)c(NC(=O)CSc2nnnn2-c2ccccc2F)c1 | i | >57
COc1ccc(C(c2nnnn2C(C)(C)C)N2CCN(c3nc4ccccc4s3)CC2)cc1 (stereo not drawn) | i | >57
Cc1c(N=C/C=C/c2ccccc2)cnn1C | i | ·
COc1cc(S(=O)(=O)NCc2ccccc2)ccc1F | i | >57
COc1ccc(NC(=O)CSc2nnc(-c3ccccc3C)n2N)cc1 | i | >57
CC1(C(=O)NC2CCCC2)CCC(=O)N1Cc1cccs1 (stereo not drawn) | i | >57
O=C(Nc1ccc(NC(=O)C2CC2)nc1)c1ccncc1 | i | >57
Cc1cnc(CNc2cc(-c3cccnc3)ncn2)cn1 | i | ·
CC(=O)c1c(C)cc(C)c(CSc2nc(C)cc(=O)[nH]2)c1C | i | ·
O[C@H](C[C@@H]1CCCCN1)c1ccc2c(c1)oc1ccccc12 | i | ·
COC(=O)N1CCC2(CCCN(C(=O)Nc3cccc(C#N)c3)C2)CC1 | i | ·
CN(c1ccc(C(=O)NCCSCc2ccco2)cc1)S(C)(=O)=O | i | >57
O=S(=O)(Nc1nc2ccccc2s1)c1ccc(Br)s1 | i | i
COC(=O)CN(n1cnnc1)S(=O)(=O)c1ccc(C)cc1 | i | >57
CC1=C(C)CC(C(=O)N2CCN(Cc3ccccc3)CC2)C(C(=O)O)C1 (stereo not drawn) | i | >57
O=C(c1cc(-n2cnnc2)ccc1Cl)N1CCN(c2nc(-c3ccccc3)cs2)CC1 | i | >57
O=C1CN(C(=O)CCCc2c[nH]c3ccccc23)c2ccccc2N1 | i | >57
CCOC(=O)c1[nH]c2cc3c(cc2c1NC(=O)CN1CC(C)CC(C)C1)OCO3 (stereo not drawn) | · | 3.49*
COc1cccc2c1C(=O)c1c(O)c3c(c(O)c1C2=O)C[C@@](O)(C(C)=O)C[C@@H]3O[C@H]1C[C@H](N)[C@H](O)[C@H](C)O1 | i | >25.6
CCOc1ccc(NS(=O)(=O)c2ccc(OCC(=O)N3CCCC3)cc2)cc1 | i | >57
CC(CCC(=O)O)(c1cc(Br)c(O)c(Br)c1)c1cc(Br)c(O)c(Br)c1 | i | ·
CCOc1nc(N(C)C)nc(-n2nnc(C(C)=O)c2C)n1 | i | >57
Cc1ccc(C)c(C(=O)CC2(O)C(=O)N(C)c3ccccc32)c1 (stereo not drawn) | i | ·
O=C(CCCN1CCOCC1)c1ccc2c(c1)OCCO2 | i | >11.4
COCc1cc(C)nc(Nc2ccc(C)cc2C)c1C#N | i | ·
C=CCn1cnc2c(c1=O)c1nc3ccccc3nc1n2Cc1ccccc1 | i | >57
Cn1nc(CC(=O)NC2CCCCCC2)c2ccccc2c1=O | i | ·
CC1CCC(NC(=O)C2CCN(c3cnccn3)CC2)CC1 (stereo not drawn) | i | >57
Cc1nn(C)c(C)c1S(=O)(=O)N1CCc2ccccc21 | i | >57
COc1ccc(C2NC(=O)c3ccccc3O2)c(OC)c1OC (stereo not drawn) | i | >57
O=C(O)C[C@H](Sc1ccccc1)c1ccccc1 | i | ·
Cc1cc(C)n(-c2nc3ccccc3[nH]c2=O)n1 | i | >57
CCCc1nc2oc3c(NCCN(C)C)ncnc3c2c2c1CCCC2 | i | >57
N#C/C(C(=O)c1ccccc1)=C1/CCCN1 | i | ·
Cn1c(COc2ccccc2)nnc1SCC(=O)NCc1ccccc1 | i | >57
COC(=O)C1(c2ccccc2)NC(c2cccs2)C2C(=O)N(C)C(=O)C21 (stereo not drawn) | i | >57
Cc1noc(C)c1S(=O)(=O)N1CCCC(C(=O)Nc2nccs2)C1 (stereo not drawn) | i | ·
O=c1c2ccccc2nc2n1CCc1c-2[nH]c2ccccc12 | i | ·
CCOC(=O)CSC1=NC(=O)CS1 | i | >57
COC(=O)CCCC(=O)Nc1ccc(Cl)c(Cl)c1 | i | >57
CCN1C(=O)C2(C(C#N)=C(N)Oc3n[nH]c(C(C)C)c32)c2ccccc21 (stereo not drawn) | i | >57
Cc1ccc(Cn2ccc(NC(=O)c3cc(-c4ccc(Cl)cc4)on3)n2)cc1 | i | >57
COC(=O)c1ccc(CN2C(=O)NC3(CCC(C)CC3)C2=O)o1 (stereo not drawn) | i | >57
Cc1nnc(NCCc2ccccc2)[nH]c1=O | i | ·
COc1ccc(C(=O)O)cc1F | i | >57
Cc1ccc(C(=O)C2=C(O)C(=O)N(c3ncccn3)C2c2ccc(Cl)cc2)o1 (stereo not drawn) | · | >25.6

Molecules above that have sulfur:
SMILES | YjeE inh | PK Bst
COc1ccc(OC)c(NC(=O)CSc2nnnn2-c2ccccc2F)c1 | i | >57
COc1ccc(C(c2nnnn2C(C)(C)C)N2CCN(c3nc4ccccc4s3)CC2)cc1 (stereo not drawn) | i | >57
COc1cc(S(=O)(=O)NCc2ccccc2)ccc1F | i | >57
COc1ccc(NC(=O)CSc2nnc(-c3ccccc3C)n2N)cc1 | i | >57
CC1(C(=O)NC2CCCC2)CCC(=O)N1Cc1cccs1 (stereo not drawn) | i | >57
CC(=O)c1c(C)cc(C)c(CSc2nc(C)cc(=O)[nH]2)c1C | i | ·
CN(c1ccc(C(=O)NCCSCc2ccco2)cc1)S(C)(=O)=O | i | >57
O=S(=O)(Nc1nc2ccccc2s1)c1ccc(Br)s1 | i | i
COC(=O)CN(n1cnnc1)S(=O)(=O)c1ccc(C)cc1 | i | >57
O=C(c1cc(-n2cnnc2)ccc1Cl)N1CCN(c2nc(-c3ccccc3)cs2)CC1 | i | >57
CCOc1ccc(NS(=O)(=O)c2ccc(OCC(=O)N3CCCC3)cc2)cc1 | i | >57
Cc1nn(C)c(C)c1S(=O)(=O)N1CCc2ccccc21 | i | >57
O=C(O)C[C@H](Sc1ccccc1)c1ccccc1 | i | ·
Cn1c(COc2ccccc2)nnc1SCC(=O)NCc1ccccc1 | i | >57
COC(=O)C1(c2ccccc2)NC(c2cccs2)C2C(=O)N(C)C(=O)C21 (stereo not drawn) | i | >57
Cc1noc(C)c1S(=O)(=O)N1CCCC(C(=O)Nc2nccs2)C1 (stereo not drawn) | i | ·
CCOC(=O)CSC1=NC(=O)CS1 | i | >57

Other entries follow.
SMILES | YjeE inh | PK Bst
CCN=C(Nc1ccc2c(c1)OCO2)SC1CC(=O)N(c2ccccc2F)C1=O (stereo not drawn) | i | ·
CCOCCCNCC(=O)N1CCN(S(=O)(=O)c2ccc(C)cc2)CC1 | i | >57
CCOC(=O)C1CCN(C(c2cccc(F)c2)c2sc3nc(C)nn3c2O)CC1 (stereo not drawn) | i | ·
CCN(CC)CCNc1nc(-c2ccco2)c2c(c1C#N)CC(C)(C)OC2 | · | >25.6
COc1ccc(C)cc1NC(=O)C1CC(=O)OC12CCCCC2 (stereo not drawn) | i | >57
Cc1ccccc1NC(=O)N1C2CCCC1CC(NC(=O)C1CC1)C2 (stereo not drawn) | i | >57
O=S(=O)(Nc1cccc2cccnc12)c1ccc(S(=O)(=O)N2CCCC2)cc1 | i | i
COc1ccc(Cl)cc1N(CC(=O)Nc1ccc2c(c1)OCO2)S(C)(=O)=O | i | ·
O=C(O)/C=C1\CCCc2ccccc2[C@H]1O | i | ·
CCOc1ccc(Nc2nc(C)cc(C)c2C#N)cc1 | i | >57
O=C(CSc1cccc(C(F)(F)F)c1)N1CCN(S(=O)(=O)c2ccccc2)CC1 | i | >57
CC(C)(C)c1ccc(OCC(=O)NC2CCS(=O)(=O)C2)cc1 (stereo not drawn) | i | >57
COc1ccc(NC(C)=O)cc1NC(=O)CSc1nnc(-c2cccnc2)n1C | i | >57
COc1ccccc1CC1(C)NC(=O)N(CC(=O)Nc2cc(C)on2)C1=O (stereo not drawn) | i | >57
O=C(CCN1C(=O)C2C3C=CC(C3)C2C1=O)NCC1CCCO1 (stereo not drawn) | i | >57
Nc1nonc1/C(=N/O)N1CCCC1 | i | >11.4
C#CCCCC(=S)Nc1ccccc1 | i | ·
CCC(=O)Oc1ccc2c(C)c(Cl)c(=O)oc2c1 | i | ·
COc1ccc(OCCCSc2ncccn2)cc1 | i | ·
COc1cccc(C(=O)Nc2cccc(-c3nnc(-c4ccccc4)o3)c2)c1 | i | ·
COc1ccc(N2C(=O)C3CCCN3C2c2ccccc2)cc1Cl (stereo not drawn) | i | >57
O=C(Nc1ccccc1C(F)(F)F)c1ccc(F)c(S(=O)(=O)N2CCOCC2)c1 | i | >57
N#Cc1nc(-c2ccc(Cl)cc2)oc1N1CCCCC1 | · | 5.06*
CCOC(=O)CNC(=O)C1CCCN(c2ncccn2)C1 (stereo not drawn) | i | >57
CCc1nnc(NC(=O)Cn2nc(-c3ccccc3OC)ccc2=O)s1 | i | >57
CC1CCc2c(C(=O)NCC3CCCO3)csc2C1 (stereo not drawn) | i | >57
Cc1nn(C(C)C(=O)O)c2ccccc12 (stereo not drawn) | i | >57
CNC[C@@H](SC)c1ccc(O)c(O)c1 | i | ·
COc1cccc(-c2nc(CS(=O)(=O)CC(=O)NCCCOC(C)C)c(C)o2)c1 | i | >57
CC(C(=O)NCc1ccc2c(c1)OCO2)N1c2cccc3cccc(c23)S1(=O)=O (stereo not drawn) | i | 0.94*
Cc1cc(C)n(CCCNCC(O)c2ccccc2)n1 (stereo not drawn) | i | >57
COC(=O)c1ccc(N2CCOCC2)c(NC(=O)Nc2cccc(OC)c2)c1 | i | ·
Cc1cc2ncn(C3CC(=O)N(Cc4ccc(N5CCCC5=O)cc4)C3=O)c2cc1C (stereo not drawn) | i | ·
CCCCCn1c(N)c(C#N)c2nc3ccccc3nc21 | i | >57
COC(=O)c1sc(NC(=O)c2oc3ccccc3c2C)nc1C | · | >11.4
O=C(O)Cn1nc(C(F)(F)F)c2c1CCCCC2 | i | >57
c1ccc2c(NCCN3CCOCC3)nc(-c3ccoc3)nc2c1 | i | ·
CCOC(=O)c1nnc2cc(-c3ccc(Br)cc3)nn2c1C | i | ·
CCCCC(=O)Nc1ccc(NC(=O)c2ccccc2OC)cn1 | i | >57
Cc1ccc2[nH]c(=O)c(CN(Cc3cccnc3)C(=O)c3ccncc3)cc2c1 | i | >57
O=C(O)c1sccc1S(=O)(=O)c1ccccc1 | i | >57
COc1ccc(OC)c(S(=O)(=O)Nc2ccc(CC(=O)O)cc2)c1 | i | >57
COc1ccc(C(=O)N2CCC3(CCCN(CC(C)C)C3)CC2)cc1 | i | ·
NC(=O)C1CCN(c2ncnc3c(-c4ccccc4)nsc23)CC1 | i | >57
Cc1cc(C)nc(NC(=O)c2cccc(Cl)c2)n1 | i | ·
O=C(NCCc1ccccc1)c1noc2c1CCCCC2 | i | >57
COc1cc(NC(=O)Cc2ccc(Cl)cc2)ccc1NC(=O)c1ccco1 | i | >57
O=C(c1cccc(Cl)c1)N1CCN(C(=O)c2ccccc2F)CC1 | · | >25.6
Cc1ccc(O)c(C(CC(=O)N2CCCC2)c2ccccc2)c1 (stereo not drawn) | i | ·
CN1C(=O)C2(NCCc3c2[nH]c2ccccc32)c2ccccc21 (stereo not drawn) | i | >57

(further entries)
SMILES | YjeE inh | PK Bst
CCC/C(O)=C1\C(=O)CC(C)(C)CC1=Nc1ccccc1OC | i | ·
c1ccc(-n2ncc3c2ncn2cnnc32)cc1 | i | >57
Cc1ccc(C(C(=O)NCc2ccco2)N(CC2CCCO2)C(=O)Cn2nnc3ccccc32)cc1 (stereo not drawn) | i | >57
O=C(Cc1cccs1)Nc1nc(-c2ccccc2)cs1 | i | ·
CCOC(=O)N1CCN(C(=O)c2ccc(NC(=O)c3ccc(C)cc3)cc2)CC1 | i | >57
O=C(C[N+]1(c2ccccc2)CCOCC1)c1ccccc1 | i | ·
CCOC(=O)C1=C(C)NC(C)=C(C(=O)OCC)C1c1nc2ccccc2[nH]1 | i | ·
Cc1ccc(SCC(=O)N2CCCC2)cc1 | i | ·
O=C(Cc1c(O)c2ccccc2[nH]c1=O)OC1CCCCC1 | i | ·
CC(=O)Nc1nc(COc2ccccc2)cs1 | i | ·
O=c1cc[nH]c2cccc(Cc3ccccc3)c12 | i | >57
Cc1nc2nc(-c3cccs3)cn2nc1C | i | ·
CCCCn1c(=S)[nH]c2ncccc2c1=O | i | >57
CCOc1ccccc1NS(=O)(=O)c1c(C)noc1C | i | >57
COc1ccc(N)c(C)c1 | i | ·
CC(C)CNC(=O)c1cc(-c2ccc(Br)cc2)on1 | i | >57
COc1cccc(C(=O)OCn2nnc3ccccc3c2=O)c1OC | i | ·
CCn1c(O)c(C=NCCN2CCOCC2)sc1=S | i | >57
COCCN1C(=O)c2ccccc2C(C(=O)NCc2ccco2)C1c1c[nH]c2ccccc12 (stereo not drawn) | i | >57
CC(C)(C)c1cc(NC(=O)COC(=O)C2CC2)n(-c2ccccc2)n1 | i | >57
CC(Oc1ccc(Br)cc1)C(=O)N1CCc2ccccc21 (stereo not drawn) | i | >57
CC(C)(C)OC(=O)N1CCNc2ccccc2C1 | i | >57
Cc1ccc2c(c1)NC(=O)C(CC(=O)NCCCN1CCN(c3cc(Cl)ccc3C)CC1)O2 (stereo not drawn) | i | ·
CNC(=O)C1CC(=O)N(c2ccc(C)cc2)C1 (stereo not drawn) | i | ·
COc1ccccc1NC(=O)C1C2CCCCC21 (stereo not drawn) | i | >57
